VCAM-1 down: inhibitors of TNFa-induced VCAM-1 surface display, cell-based, plate reader, pooled HUVEC, TNFa stimulus (AID 454) | actives 0.2% (n = 10,000) | HUVEC TNFa-induced VCAM-1 surface immunofluorescence, plate reader; numbers were filed only for top-ranked candidate wells | inhibition, % at 5 µM;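 active = compound among top-ranked inhibitors of TNF-induced VCAM-1 adhesion protein staining, with the hit upheld by image or statistical review; inactive = the rest, including hits rejected on review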;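 note: 0% = TNFa with vehicle and 100% = cells without TNFa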
VCAM-1 augmentation: enhancers of VCAM-1 display on endothelial cells, imaging, high-content imaging, pooled HUVEC, TNFa stimulus (AID 457); Pooled HUVEC, TNFa-induced VCAM-1 immunofluorescence imaging; hits of this screen are not shown here; calls only; actives 0.2% (n = 10,000);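 active = a top-ranked rise in VCAM-1 staining upheld on image or statistical review; inactive = the rest, including candidates rejected on review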;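 note: compounds tested at 5 µM in the well; cells exposed to compound for 24 hours before fixing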
FPRL1 ligand: human FPRL1 ligand, with FPR counter-screen; FPRL1-expressing cells, fluorescent ligand binding inhibition, flow cytometry; inhibition, %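 (tested at 6.7 µM)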; actives 0.3% (n = 24,000); AID 441;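 note: 0% = buffer alone and 100% = receptor blocker peptide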
Target sequence (P25090 whole entry, looked up): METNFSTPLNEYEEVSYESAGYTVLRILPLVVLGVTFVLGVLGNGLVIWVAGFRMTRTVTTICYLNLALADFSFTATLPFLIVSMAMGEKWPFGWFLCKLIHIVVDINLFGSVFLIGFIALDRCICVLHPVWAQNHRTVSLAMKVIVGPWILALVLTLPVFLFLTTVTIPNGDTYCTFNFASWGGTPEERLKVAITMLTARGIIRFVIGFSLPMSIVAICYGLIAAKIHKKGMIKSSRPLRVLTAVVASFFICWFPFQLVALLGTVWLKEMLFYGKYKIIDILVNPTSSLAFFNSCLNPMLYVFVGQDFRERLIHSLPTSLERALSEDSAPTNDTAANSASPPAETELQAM
FPR binder: ligands of human FPR, also counter-screen for FPRL1 ligands. FPR-expressing cells, fluorescent ligand binding, flow cytometry. actives 0.74% (n = 24,000). P21462. inhibition, %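 (tested at 6.7 µM)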;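 note: 0% = buffer wells and 100% = receptor blocker peptide wells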
Target sequence (P21462 whole entry, looked up): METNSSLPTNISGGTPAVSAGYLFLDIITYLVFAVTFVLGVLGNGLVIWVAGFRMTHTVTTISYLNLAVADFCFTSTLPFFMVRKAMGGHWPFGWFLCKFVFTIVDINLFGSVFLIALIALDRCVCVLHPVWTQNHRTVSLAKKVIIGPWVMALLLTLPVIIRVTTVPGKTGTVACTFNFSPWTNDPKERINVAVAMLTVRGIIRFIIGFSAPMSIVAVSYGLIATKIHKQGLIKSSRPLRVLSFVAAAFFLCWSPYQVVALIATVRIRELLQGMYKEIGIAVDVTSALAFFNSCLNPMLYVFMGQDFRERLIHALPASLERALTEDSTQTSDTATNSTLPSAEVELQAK
VCAM-1 down imaging: suppression of endothelial VCAM-1 upregulation – imaging, high-content imaging, pooled HUVEC, TNFa stimulus (AID 456) | inhibition, % at 5 µM; hits with a dose series show IC50 in µM | HUVEC TNFa-induced VCAM-1 surface expression, immunofluorescence imaging; numbers were filed only for top-ranked candidate wells | actives 0.2% (n = 10,000);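 active = top tenth filtered wells with inhibition above zero that passed visual or statistical confirmation; inactive = the rest, including hits rejected on review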;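 note: 0% = stimulated vehicle wells and 100% = unstimulated cells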
An asterisk follows results filed as active; i = inactive; . = no result given.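 Rule for the calls, unless noted: active = mean above 30%; inconclusive = self-fluorescent; inactive = the rest.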 These rows are one share of the data, so the mix of outcomes need not match the whole.

The line under a structure holds: VCAM-1 down	VCAM-1 augmentation	FPRL1 ligand	FPR binder	VCAM-1 down imaging
> COc1ccc2oc(=O)cc(C)c2c1
→ .	.	2.3	0.0	.
> N#Cc1nc(N2CCOCC2)nc(N2CCOCC2)n1
→ .	.	-3.8	2.8	.
> CCN(CC)c1nc(-c2nn[nH]n2)nc(N(CC)CC)n1
→ .	.	5.4	-0.3	.
> CC(=O)Nc1ccccc1N(C)S(=O)(=O)c1ccc(C)cc1
→ .	.	2.8	1.1	.
> O=C(O)c1cc(-c2ccccc2)c(N2CCOCC2)s1
→ .	.	6.6	8.1	.
> O=S(=O)(c1ccccc1S(=O)(=O)N1CCCCC1)N1CCCCC1
→ .	.	-0.1	0.1	.
> CCC(=O)N1CCc2cc(Br)cc(S(=O)(=O)N3CCCCCC3)c21
→ i	i	-4.2	1.4	i
> CCC(C)NC(=O)C1CCN(S(=O)(=O)CC)CC1 (stereo not drawn)
→ .	.	-9.5	-0.8	.
> CC(=O)c1cccc(-n2nnnc2SCC(=O)N2CCCC2)c1
→ i	i	4.4	2.0	i
> Cc1ccc(S(=O)(=O)N(C)CC(=O)NC2CC(C)(C)NC(C)(C)C2)cc1
→ i	i	0.9	-4.1	i
> COc1ccc(C(=O)N2CCN(S(=O)(=O)c3ccc(C)cc3C)CC2)cc1OC
→ .	.	-2.8	-2.4	.
> c1ccc(Cn2ncc3c2ncn2c(-c4ccncc4)nnc32)cc1
→ i	i	2.2	-8.0	i
> O=C(c1ccccc1-c1ccccc1)N1CCN(c2ccccn2)CC1
→ i	i	-5.3	-6.4	i
> CC(C)(C)OC(=O)N1CCOCCOCCN(C(=O)OC(C)(C)C)CCOCCOCC1
→ i	i	-0.5	1.2	i
> COc1ccc(C(=O)N2CCN=C2SCc2cccnc2)c(OC)c1
→ .	.	-7.6	5.1	.
> CCOC(=O)N1CCN(C(=O)c2cnc3n(c2=O)CCS3)CC1
→ .	.	-0.5	0.2	.
> COC(=O)c1ccc(NC(=O)C2C3CCC(C3)C2C(=O)O)cc1 (stereo not drawn)
→ i	i	0.3	-11.2	i
> CCN(CC)CCCNC(=O)C1c2ccccc2C(=O)N(C)C1c1ccc(OC)cc1 (stereo not drawn)
→ .	.	-3.2	-3.4	.
> CCCOc1ccc(N2C(=O)CC(NCCCN3CCC(C(N)=O)CC3)C2=O)cc1 (stereo not drawn)
→ i	i	-5.4	3.6	i
> Cc1csc(NC(=O)CN(C)S(=O)(=O)c2cccc3cccnc23)n1
→ .	.	-0.9	1.7	.
> CC(=O)N1CCc2cc(S(=O)(=O)NC(CC(C)C)C(=O)Nc3cc(C(=O)O)ccc3C)ccc21 (stereo not drawn)
→ .	.	0.3	9.8	.
> CC(C)OC(=O)CCCN1C(=O)c2ccc(N)cc2C1=O
→ .	.	-5.0	-0.7	.
> O=C(c1ccc(S(=O)(=O)N2CCOCC2)cc1)N(c1ccccc1)C1C=CS(=O)(=O)C1 (stereo not drawn)
→ .	.	2.0	0.3	.
> O=C(Nc1cnn(Cc2ccc(F)cc2)c1)c1cc(-c2cccs2)on1
→ .	.	-2.5	-0.6	.
> Cc1n[nH]c(C)c1S(=O)(=O)N1CCCC(C(=O)NC2CCCc3ccccc32)C1 (stereo not drawn)
→ .	.	-3.0	-0.4	.
> O=C(NCC1CCCO1)c1ccc2c(=O)n(CCc3ccccc3)c(=O)[nH]c2c1 (stereo not drawn)
→ .	.	-10.6	1.6	.
> Nc1nnc(Cc2ccc(Cl)cc2)s1
→ i	i	0.9	3.7	i
> Cc1cccn2c(=O)c3cc(C(=O)NC4CCCCC4)c(=N)n(CCN4CCOCC4)c3nc12
→ .	.	0.0	7.6	.
> Cc1ccc(C(c2sc3nc(C)nn3c2O)N2CC(C)OC(C)C2)cc1 (stereo not drawn)
→ i	i	0.7	2.1	i
> CC(=O)c1nnn(-c2nc(N)nc(N(c3ccccc3)c3ccccc3)n2)c1C
→ .	.	-10.4	6.7	.
> COc1ccccc1C1N(c2ccc(Cl)cc2)C(=O)C2CCCN21 (stereo not drawn)
→ .	.	3.8	-6.1	.
> Cc1oc(-c2cccs2)nc1CS(=O)CC(=O)NC1CCCCCC1 (stereo not drawn)
→ .	.	-0.8	28.0	.
> COCCN(CCOC)S(=O)(=O)c1ccc(C(=O)Nc2nc(C)c(C(C)=O)s2)cc1
→ .	.	0.0	9.5	.
> COc1ccc(-c2nc(C)c(C(C)=O)n2O)cc1OC
→ i	i	1.6	1.2	i
> Cc1cccc(OCCn2c(=O)n(C)c3ccccc32)c1
→ .	.	-1.1	2.0	.
> O=C(CN1CCN(S(=O)(=O)c2ccc(Br)cc2)CC1)Nc1ccc(F)cc1F
→ .	.	4.3	9.8	.
> CN(CCNC(=O)c1cc2c(=O)n(C)c3ccccc3c2n1C)Cc1ccccc1
→ .	.	7.7	3.7	.
> C=CCOc1ccc(C2c3c(oc4ccccc4c3=O)C(=O)N2c2ccccn2)cc1OCC (stereo not drawn)
→ .	.	5.3	0.2	.
> CCSc1nc2c(c(=O)n(C)c(=O)n2C)n1Cc1ccc(Cl)cc1
→ i	i	-1.4	0.6	i
> CCOC(=O)C1=C(Cn2cnc3ccccc32)NC(=O)NC1c1cc(C)ccc1C (stereo not drawn)
→ i	i	-11.7	-8.6	i
> CNc1nc(C)nc(-c2ccccc2O)n1
→ .	.	12.9	27.6	.
> CC1CCC(NC(=O)c2cc3c(s2)CS(=O)(=O)C3)CC1 (stereo not drawn)
→ .	.	3.1	-4.9	.
> Cc1cc(C)nc(Sc2ccc3nnc(C(F)(F)C(F)(F)C(F)(F)F)n3n2)n1
→ i	i	-0.3	-2.5	i
> CC(C)N(C(=O)N1CCC(c2nc(-c3ccncc3)no2)CC1)C(C)C
→ i	i	-1.5	-4.0	i
> O=C(N1CCOCC1)C12CC3CC(C1)CC(C(=O)N1CCOCC1)(C3)C2
→ .	.	-1.5	2.3	.
> CCOc1cccc2c1OC1(C)CC2NC(=O)N1c1cccc(Cl)c1 (stereo not drawn)
→ .	.	9.1	-0.6	.
> COc1ccc(Cn2c(=O)[nH]c3cc(C(=O)NCCCN4CCCC4)ccc3c2=O)cc1
→ i	i	-0.8	-1.4	i
> COc1ccc(-n2ncc3c(N4CCCc5ccccc54)ncnc32)cc1
→ .	.	-8.1	5.8	.
> CCn1c(=N)n(CC(O)COc2cccc(C)c2)c2ccccc21 (stereo not drawn)
→ i	i	10.6	-4.8	i
> COc1ccc(OC)c(CNC(=O)Cc2c(C(=O)O)[nH]c3ccccc23)c1
→ .	.	7.6	-4.3	.
> CCN(CC)S(=O)(=O)c1ccc2oc(C(=O)N3CCOCC3)c(C)c2c1
→ i	i	4.0	1.3	i
> COc1ccc(S(=O)(=O)N2CCC(C(=O)NCc3ccco3)CC2)cc1
→ i	i	-1.6	-4.9	i
> Brc1ccc(-c2nnc3sc(CN4CCc5ccccc5C4)cn23)cc1
→ .	.	-5.4	-0.1	.
> CCOC(=O)C1=C(C)N=c2s/c(=C\c3ccncc3)c(=O)n2C1c1ccc2c(c1)OCO2 (stereo not drawn)
→ .	.	-7.7	-13.8	.
> O=C(CN1CCOc2ccccc21)NCc1ccc(Cl)cc1
→ .	.	-0.9	-3.0	.
> OC(COc1c(F)cc(Br)cc1F)CN1CCN(c2ccc(F)cc2)CC1 (stereo not drawn)
→ .	.	-15.6	13.4	.
> C=CCn1cc(C(=O)NCCOC)c(=O)c2cc(S(=O)(=O)N(CC)CC)ccc21
→ i	i	-2.2	1.0	i
> CN(Cc1ccccc1)c1ncnc2c1cnn2-c1ccccc1
→ .	.	-4.8	-0.8	.
> O=C(CN1CCN(C2CCCCC2)CC1)Nc1ccccc1-c1ccccc1
→ i	i	-5.1	-3.4	i
> CC(=O)c1ccc(NC(=O)CCn2c(=O)oc3ccccc32)cc1
→ .	.	0.5	0.8	.

Just FPRL1 ligand, VCAM-1 down imaging and VCAM-1 down, for some of the entries so far:
compound	FPRL1 ligand	VCAM-1 down imaging	VCAM-1 down
Cc1cc(C)nc(Sc2ccc3nnc(C(F)(F)C(F)(F)C(F)(F)F)n3n2)n1	-0.3	i	i
CC(C)N(C(=O)N1CCC(c2nc(-c3ccncc3)no2)CC1)C(C)C	-1.5	i	i
O=C(N1CCOCC1)C12CC3CC(C1)CC(C(=O)N1CCOCC1)(C3)C2	-1.5	.	.

Going on with the list:
The line under a structure holds: VCAM-1 down	VCAM-1 augmentation	FPRL1 ligand	FPR binder	VCAM-1 down imaging
> CCN1CCN(C(=O)Cn2c(=O)sc3ccccc32)CC1
→ .	.	5.8	-9.1	.
> Nc1nc(-c2ccccc2Br)cs1
→ i	i	-1.7	-7.7	i
> Cc1[nH]nc2c1C(=O)CCC2
→ i	i	4.0	7.8	i
> O=C(C1CCC(=O)N1Cc1ccccc1Cl)N1CCN(c2cccc(Cl)c2)CC1 (stereo not drawn)
→ .	.	-6.2	2.8	.
> O=C(NC1CCCC1)C1C2C=CC3(CN(Cc4cccs4)C(=O)C13)O2 (stereo not drawn)
→ .	.	0.1	-4.3	.
> Cc1ccc(OCCN2C(=O)CSC2=O)cc1
→ .	.	-20.8	5.2	.
> Cc1cc(C)c(S(=O)(=O)NCc2cn3c(C)csc3n2)c(C)c1
→ .	.	2.6	6.4	.
> CCOC(=O)CN(C(=O)CSc1nnc(-c2ccncc2)n1CCCN(C)C)c1ccccc1
→ i	i	-5.0	3.0	i
> CS(=O)(=O)C1=C(O)C(=O)N(c2ccccc2)C1c1ccccc1 (stereo not drawn)
→ i	i	7.0	14.5	i
> CC(=O)NC(C)c1nc2ccccc2n1C(C)C (stereo not drawn)
→ i	i	-2.2	-0.4	i
> CCC(=O)c1ccc(OCC(O)Cn2cnc3ccccc32)cc1 (stereo not drawn)
→ .	.	-2.1	-6.2	.
> CCN(CC)CCN1C(=O)C(=O)/C(=C(/O)c2c(C)[nH]c(C(=O)OC)c2C)C1c1cccc(OC)c1 (stereo not drawn)
→ .	.	-3.8	-7.6	.
> O=C(CN1CCN(Cc2ccc3c(c2)OCO3)CC1)Nc1ccc2c(c1)OCCO2
→ i	i	0.9	-4.4	i
> CSc1nnc(-c2cnccn2)n1C
→ i	i	2.3	5.3	i
> COc1ccc(-c2nc(N3CCCC3)[nH]c(=O)c2C#N)cc1
→ i	i	5.8	28.8	i
> Nc1nonc1-c1noc(CCCN2C(=O)c3ccccc3C2=O)n1
→ .	.	6.7	5.0	.
> COc1ccc2nc3oc(C(=O)N4CCN(c5cccc(Cl)c5)CC4)cc3cc2c1
→ .	.	-4.0	-2.8	.
> COc1cc2c(cc1OC)C(C(=O)O)C(c1cc(Br)c(O)c(OC)c1)N(C)C2=O (stereo not drawn)
→ .	.	0.6	-2.3	.
> COc1ccc(-c2nc(CSCC(=O)N3CCN(c4cccc(C)c4)C(C)C3)c(C)o2)cc1OC (stereo not drawn)
→ i	i	-6.1	4.0	i
> CCOc1ccc(CN2CCN(c3cc(C)nc4c5c(C)cc(C)nc5nn34)CC2)cc1
→ i	i	-1.9	2.0	i
> COC(=O)c1c(C)[nH]c(C)c1-c1ccccc1Cl
→ .	.	11.2	3.1	.
> O=C(O)c1cc(-c2ccccc2)n(-c2ccccc2C(=O)O)n1
→ .	.	-1.3	-3.4	.
> COCCCNC(=O)c1oc2ccc(S(=O)(=O)N(C)C3CCCCC3)cc2c1C
→ .	.	-6.9	3.7	.
> CCOC(=O)N1CCN(C(=O)CCN2C(=O)COc3ccc(C)cc32)CC1
→ .	.	-0.9	0.7	.
> CCCOc1cccc(C(=O)N(Cc2ccco2)C2CCS(=O)(=O)C2)c1 (stereo not drawn)
→ i	i	-0.8	-0.9	i
> C=COCCNC(=O)Nc1ccc(Cl)c(Cl)c1
→ i	i	-0.2	0.4	i
> COc1cccc(NC(=O)c2oc3ccccc3c2NC(=O)c2ccc3c(c2)OCO3)c1
→ .	.	-3.2	-5.8	.
> Cc1cccc(Nc2ccccc2C(=O)NCc2ccco2)c1C
→ .	.	34.3*	12.9	.
> CCCn1c(C)cc(=O)c2cc(NC(=O)c3cnccn3)ccc21
→ .	.	-4.1	-3.7	.
> Cc1cccc(N2CCN(C(=O)C3CCCN(S(=O)(=O)c4c(C)noc4C)C3)CC2)c1C (stereo not drawn)
→ i	i	-4.3	-3.8	i
> Cc1ccc(CN2C(=O)CCC2C(=O)NCc2ccco2)cc1 (stereo not drawn)
→ .	.	-2.6	-1.3	.
> CSCCC(NC(=O)CCN1C(=O)c2ccccc2C1=O)C(=O)O (stereo not drawn)
→ i	i	5.4	12.7	i
> CCCCn1c(SCC(=O)OCC)nc2c1c(=O)[nH]c(=O)n2C
→ i	i	1.6	-4.9	i

2 entries from above, as a markdown table:
| SMILES | VCAM-1 down | VCAM-1 augmentation | FPRL1 ligand | FPR binder | VCAM-1 down imaging |
| --- | --- | --- | --- | --- | --- |
| CCOc1ccc(CN2CCN(c3cc(C)nc4c5c(C)cc(C)nc5nn34)CC2)cc1 | i | i | -1.9 | 2.0 | i |
| COC(=O)c1c(C)[nH]c(C)c1-c1ccccc1Cl | . | . | 11.2 | 3.1 | . |

Screening data: PubChem, several laboratories
